VACV mCherry inh = inhibitors of vaccinia virus infection (mCherry reporter signal) | Vaccinia virus mCherry reporter infection, fluorescence; about a quarter of the inactives have no number | hit rate 0.63% among 310,000 | AID 720579 | Potency, µM (highest dose often 36.5 µM), inactives show at the highest dose activity change, negative = inhibition, usual class: inhibitors; active = well fitted inhibition curve with a large enough effect; inconclusive = small, poorly fitted or top-dose-only effect; inactive = no such curve, though single readings can be large or run the other way; tested in A549 cells; further: nearly all actives have a fitted effect of over 35% in size; inactives centre near -10
Vaccinia Venus = vaccinia inhibition (Venus reporter). Vaccinia virus Venus reporter expression, fluorescence. Potency, µM (series often up to 36.5 µM), for inactives: at the highest dose activity change, negative = inhibition, hits mostly inhibitors. hit rate 0.46% among 330,000; active means well fitted inhibition curve with a large enough effect; inconclusive means small, poorly fitted or top-dose-only effect; inactive means no such curve, though single readings can be large or run the other way; tested in A549 cells; further: nearly all actives have a fitted effect of over 30% in size; inactives centre near -10
* marks the source's active call; other numbers are inactive results; i = inactive; ? = inconclusive; / = no result given; & = joins results of further samples; [ ] = dose if it differs, or a comment. On the % scale 0 is the no-effect control and ±100 the full control effect; potency means the concentration at half of the fitted maximal effect.

SMILES | VACV mCherry inh | Vaccinia Venus
COCCN(C(=O)CNC(=O)c1ccco1)C(C(=O)NC1CCCC1)c1ccccc1F (centres undefined) | -3% | -9%
COCCN(Cc1ccco1)C(=O)Cn1ncc2c([nH]c3ccccc32)c1=O | -4% | -2%
C/C(=N\O)c1noc(C)c1C(=O)Nc1nccs1 | -14% | -9%
Fc1cc(F)c2nc(N3CCCCC3)sc2c1 | -28% | -18%
CC1CCCC(C)N1/N=C/C=C/c1ccccc1[N+](=O)[O-] (centres undefined) | -9% | 0%
O=C(Cc1ccccc1F)Nc1nc2ccccc2[nH]1 | -17% | -18%
CN(C)c1ccc(/C=C/c2nc(-c3ccccc3O)n(-c3ccccc3)n2)cc1 | -18% | -6%
CCCN(CCC)CCCNC(=O)Cn1cc2c(n1)-c1c(oc(C(=O)N3CCCC3)c1C)CC2 | -16% | -15%
COc1ccc(C(=O)c2[nH]c(N)c(C(=O)NCCc3c[nH]c4ccccc34)c2-c2ccc(Cl)cc2)cc1 | -11% | -13%
Cc1ccc(C)c(S(=O)(=O)Nc2ccc(C(=O)NCC(c3ccco3)N3CCCCC3)cc2)c1 (centres undefined) | -6% | -10%
COc1ccc(CC(=O)Nc2cccc3ncccc23)cc1OC | i | -1%
COc1ccc(CCC(=O)Nc2ccc3c(c2)OCO3)cc1 | i | -19%
Cc1cc(O)ccc1NC1=CC(=O)CC(C)(C)C1 | -13% | -11%
Cc1cc(C)n2c(Nc3ccc4c(c3)OCCO4)c(C(C)C)nc2n1 | -25% | -6%
O=S1(=O)N=C2CCCN2C(c2ccc(F)cc2)N1 (centres undefined) | -12% | -2%
CN(Cc1ccccc1)C(=S)NC(=O)c1cccs1 | -22% | -18%
CC(=O)C[C@@H](O)CC(=O)[C@H]1OC(=O)CC/C=C\Cc2ccccc21 | i | 4%
Cc1cc(C)cc(-n2nnc3ccccc3c2=O)c1 | i | -6%
COc1cccc(CNC(=O)CCn2ccc3cc(S(=O)(=O)N4CCC(C)CC4)ccc32)c1 | -16% | -19%
Nc1cc(Cc2ccccc2)ccc1O | 0% | -6%
COc1ccc(NC(=O)N(C)C[C@H]2Oc3c(NC(=O)c4ccncc4)cccc3C(=O)N([C@H](C)CO)C[C@@H]2C)cc1 | i | -4%
O=C1CN(C(=O)COC(=O)CCCOc2ccccc2)c2ccccc2N1 | -9% | -12%
C#CCCCCCCCCCCCC(O)CC(O)COC(C)=O (centres undefined) | -15% | -19%
COc1cccc(OC)c1C(=O)Nc1ccc(N2CCN(C(=O)c3ccco3)CC2)cc1 | -3% | -8%
Cc1ccc(-c2cc(-c3ccc(C)o3)nc(N)c2C#N)cc1 | / | 6%
Cc1ncc(CN2CCC(C(=O)Nc3cccc(-c4cscn4)c3)CC2)cn1 | ? | -30%
CC(=O)Nc1ccc(-c2ccnc3c2CC(C(=O)Nc2cccc(C(F)(F)F)c2)O3)cc1 (centres undefined) | 11% | -17%
COc1ccc(NC(=O)CCc2nc(C3=CCN(Cc4cccc(Cl)c4)CC3)no2)c(OC)c1 | -28% | -22%
COc1ccc(N2C(=O)C3C(C2=O)C3(c2ccccc2)c2ccccc2)cc1 (centres undefined) | -14% | -25%
CC(C)C(=O)N1CCCC1(C)C(=O)Nc1ccc2c(c1)OCO2 (centres undefined) | 0% | -2%

Fetched one by one from above (four):
SMILES | VACV mCherry inh | Vaccinia Venus
COc1ccc(N2C(=O)C3C(C2=O)C3(c2ccccc2)c2ccccc2)cc1 (centres undefined) | -14% | -25%
COc1ccc(NC(=O)N(C)C[C@H]2Oc3c(NC(=O)c4ccncc4)cccc3C(=O)N([C@H](C)CO)C[C@@H]2C)cc1 | i | -4%
COc1cccc(OC)c1C(=O)Nc1ccc(N2CCN(C(=O)c3ccco3)CC2)cc1 | -3% | -8%
Cc1ncc(CN2CCC(C(=O)Nc3cccc(-c4cscn4)c3)CC2)cn1 | ? | -30%

More structures.
SMILES | VACV mCherry inh | Vaccinia Venus
COc1ccc(NS(=O)(=O)c2ccc(Cl)c(NC(=O)c3ccccc3F)c2)cc1 | -7% | -19%
COc1ccc(NC(=O)Cn2cc(C(=O)C3CCCCC3)c3ccccc32)cc1 | 4% | 2%
COc1ccc(NC(=O)C2CCCN(c3ncnc4c3nc3n4CCCCC3)C2)c(OC)c1 (centres undefined) | 5% | -3%
O=C(/C=C/c1ccc2c(c1)OCCCO2)c1ccc2ccccc2c1O | i | -10%
Cc1c(C#N)c2n(c1C)CCCC(=O)N2 | -15% | -9%
COC(=O)CN1C(=O)C(O)(CC(=O)c2ccc(C)cc2)c2cc(Br)ccc21 (centres undefined) | 21% | 3%
O=C1c2ccccc2C(=O)N1c1cccc(-c2nc3ccccc3o2)c1 | / | -13%
CCN(CC)S(=O)(=O)c1ccc(NC2c3ccccc3C(=O)N2Cc2ccc3c(c2)OCO3)cc1 (centres undefined) | 24% | -4%
Cn1c(SCC(=O)Nc2nc3ccccc3s2)ncc(C(=O)Nc2ccccc2)c1=O | i | -8%
COCCNC(C)C(=O)Nc1ccc(Br)cc1 (centres undefined) | i | -3%
Cc1csc2ncc(C(=O)NCc3ccc4c(c3)OCO4)c(=O)n12 | i | -5%
CCOC(=O)C1CCN(c2nc3c(S(=O)(=O)c4ccc(C)c(C)c4)nnn3c3ccc(Cl)cc23)CC1 | -16% | -14%
NC(=O)c1ccc(N2CCCC2)nc1 | -2% | 0%
CCC(=O)Nc1ccc(N2CCOCC2)c(S(=O)(=O)Nc2ccc(OC)cc2)c1 | -4% | 0%
COc1cccc(Oc2coc3c(CN4CCOCC4)c(O)ccc3c2=O)c1 | / | -3%
Cc1cc2c(cc1S(=O)(=O)NCc1ccccc1Cl)OCCN2C | 12%&-13% | -11%&-5%
COc1ccc(C(=O)Nc2nc3ccccc3s2)c(OC)c1 | 1% | -14%
CCOc1cc(/C=C(/C#N)C(=O)Nc2ccc(OC)cc2)ccc1OCc1ccc(C(=O)O)cc1 | i | -14%
CCN(CC(=O)NC1CCS(=O)(=O)C1)S(=O)(=O)c1cc(C)ccc1C (centres undefined) | i | -8%
Cc1cc(NC(=O)C2CC(c3ccc(F)cc3)=NO2)n(-c2ccccc2)n1 (centres undefined) | i | 10%

Compounds above with bromine, in the order listed:
SMILES | VACV mCherry inh | Vaccinia Venus
COC(=O)CN1C(=O)C(O)(CC(=O)c2ccc(C)cc2)c2cc(Br)ccc21 (centres undefined) | 21% | 3%
COCCNC(C)C(=O)Nc1ccc(Br)cc1 (centres undefined) | i | -3%

The listing picks up, starting 4 compounds before the break.
SMILES | VACV mCherry inh | Vaccinia Venus
COc1ccc(C(=O)Nc2nc3ccccc3s2)c(OC)c1 | 1% | -14%
CCOc1cc(/C=C(/C#N)C(=O)Nc2ccc(OC)cc2)ccc1OCc1ccc(C(=O)O)cc1 | i | -14%
CCN(CC(=O)NC1CCS(=O)(=O)C1)S(=O)(=O)c1cc(C)ccc1C (centres undefined) | i | -8%
Cc1cc(NC(=O)C2CC(c3ccc(F)cc3)=NO2)n(-c2ccccc2)n1 (centres undefined) | i | 10%
COc1cccc(CNC(=S)Nc2cccc(Cl)c2C)c1 | i | -11%
CCN(CC)c1ccc2cc(C(C)=O)c(=O)oc2c1 | ? | -25%
COc1ccc(OC)c(/C=N\NC(=O)CC(=O)NCCc2ccccc2)c1 | -12% | -11%
Cc1noc(C)c1CC(=O)NC1CC(C)(C)Cc2c1cnn2-c1ccccc1 (centres undefined) | -4% | -11%
COc1ccc2c(c1)Cc1sc(NC(=O)c3cccnc3)nc1-2 | 1% | -4%
Nc1c2c(nc3sc4c(c13)CCCC4)CCCC2 | -9% | ?
O=C1C(=O)N(C2CCN(C(=O)c3ccccc3F)CC2)CCN1Cc1ccc(F)cc1 | -8% | 5%
CCOC(=O)c1c(NC(=O)COC(=O)CCCOc2ccc(OC)cc2)sc(C(=O)NC)c1C | -6% | -12%
O=C(CSc1nnc2[nH]c(=O)cc(-c3ccccc3)n12)Nc1ccc(OC(F)(F)F)cc1 | -1% | -8%
CC(C)(C)c1ccc(NC(=O)CN2C(=O)NC(C)(C3CC3)C2=O)cc1 (centres undefined) | -10% | -11%
O=c1nc(N2CCCC2)nc(N2CCCC2)[nH]1 | -18% | -5%
CCCCN1CC(N2CCN(Cc3cccc(C)c3)CC2)CS1(=O)=O (centres undefined) | 50%[activator] | 0%
c1ccc(C2NCc3ccccc3-n3cccc32)cc1 (centres undefined) | -22% | -19%
O=C1OC(=O)c2cc([N+](=O)[O-])ccc21 | -24% | -16%
C[C@H](NC(=O)c1nc[nH]c1C(=O)N(C)CCO)c1ccccc1 | 2% | -1%
COc1ccc(C2OC(CCc3ccccc3)Cc3[nH]c(=S)[nH]c(=O)c32)cc1 (centres undefined) | i | 0%
Cc1ccc2cc(CN(Cc3ccc(F)cc3)Cc3nnnn3C3CCCC3)c(=O)[nH]c2c1 | ? | -22%
Cc1ccc(C(=O)Nc2c(C(=O)N3CCOCC3)cnn2-c2ccccc2)cc1 | / | 20%
COc1ccc(-c2noc(-c3ccc(NCCc4ccccc4)c([N+](=O)[O-])c3)n2)cc1OC | -6% | -9%
COc1ccccc1-n1cnc2c(c1=O)c1nc3ccccc3nc1n2-c1ccc(C)c(C)c1 | ? | ?
Cc1ccc(Nc2ncc(C(=O)NCCCN3CCN(C)CC3)c3ccccc23)cc1Cl | -19% | -13%
CC1Cc2ccccc2N1C1=NS(=O)(=O)c2ccccc21 (centres undefined) | -4% | -6%
CC(C)C(=O)N1CCC(n2nccc2NC(=O)CCOc2ccccc2)CC1 | -29% | -8%
COc1cccc(NC(=O)N[C@@H](Cc2ccccc2)C(=O)O)c1 | / | 5%
Fc1cccc(Nc2nc3ccccc3n3nnnc23)c1 | -15% | -26%
CCc1ccc(N(CC)C(=O)c2ccc3c(=O)n4c(nc3c2)CCCCC4)cc1 | ? | ?
Cc1cccc(NC(=O)Cn2cc(C(=O)C3CCCCC3)c3ccccc32)c1 | -5% | 0%
CCN(CC(=O)Nc1c(F)cccc1F)C(=O)c1ccc(N2C(=O)c3ccccc3C2=O)cc1 | i | -12%
CCc1ccc(NC(=O)CSc2nc3c(c(=O)n(C)c(=O)n3C)n2C)cc1 | -6% | -8%
CCCOc1ccc(C(=O)CCN2CCCCC2)cc1 | / | -13%
C/C(=N\NC(=O)c1c(C)nc2ccccn12)c1ccc(N2CCOCC2)cc1 | -1% | -9%
C/C(=N/NS(=O)(=O)c1ccc(F)cc1)c1ccncc1 | -10% | -4%
CS(=O)(=O)N1CCN(c2ccccc2NC(=O)c2ccc(-c3ccc(Cl)cc3Cl)o2)CC1 | / | 2%
Cc1ccccc1CNCCSc1nnnn1C | 12% | -2%
CC1=CC2(C#N)C3(N=C(N)C2(C#N)C(c2ccccc2)N1)OCCO3 (centres undefined) | 1% | 2%
N#Cc1ccccc1NC(=O)CSc1ncn[nH]1 | -3% | 6%
CN(C)c1cc(-c2ccc(Cl)cc2)oc(=O)c1Cl | i[7.34 µM] | -7%[7.34 µM]
COCCn1c(N)c(S(=O)(=O)c2cccs2)c2nc3ccccc3nc21 | i | -14%
CCCCCC(=O)NNC(=S)NC(=O)c1ccccc1[N+](=O)[O-] | -20% | -6%
COc1ccc(N(Cc2cc3ccccc3[nH]c2=O)C(=O)C2CCCO2)cc1 (centres undefined) | / | -11%
CCCOc1ccc(N2C(=O)CC(N(CCC)C(=O)CCC(=O)O)C2=O)cc1 (centres undefined) | / | -21%
Cc1ccc(-n2c(SCC(=O)Nc3ccc4c(c3)OCO4)nnc2-c2ccoc2C)cc1 | -13% | -25%
CCN(CC)S(=O)(=O)c1ccc(Cl)c(C(=O)Oc2cccc(-c3cnc4ccccc4n3)c2)c1 | -18% | -11%
O=C(Nc1cccc2ccccc12)c1ccc2sc([C@@H]3O[C@H](CO)[C@H](O)[C@H](O)[C@H]3O)nc2c1 | 17% | 2%
COc1ccc(CC(NC(C)=O)C(=O)NC2CCN(C(=O)c3ccc(OC)c(OC)c3)CC2)cc1OC (centres undefined) | -10% | -1%
COc1cc(NC(=O)c2csc3c2CCCC3)ncn1 | -19% | -11%
CC(C)(C)NC(=O)C1CCN(S(=O)(=O)c2cccc(C(F)(F)F)c2)CC1 | i | 0%
Cc1c(/C=C/C(=O)c2ccc(C(C)C)cc2)cnn1C | -11% | -14%
C[C@@H]1CN([C@H](C)CO)S(=O)(=O)c2ccc(Br)cc2O[C@@H]1CN(C)Cc1ccc(C(=O)O)cc1 | -5% | -9%
CC(=O)N1CCc2cc(S(=O)(=O)CCC(=O)NCc3ccc(C)o3)ccc21 | -26% | -11%

Next structures
SMILES | VACV mCherry inh | Vaccinia Venus
O=C(CSc1ccc(Cl)cc1)Nc1ccc(N2CCN(C(=O)c3ccco3)CC2)cc1 | / | -23%
CCN1CCN(C(=O)c2cc3c(-c4ccc(Cl)cc4)nn(C)c3s2)CC1 | -12% | -22%
CC(=O)Oc1ccc2c(=O)c(Oc3ccccc3)coc2c1OC(C)=O | ? | ?
CCOc1ccccc1CNC(=O)c1ccc(Cn2c(SCc3ccccc3)nc3cccnc32)cc1 | -8% | -15%
CCN(CC)S(=O)(=O)c1ccc(N2CCN(C)CC2)c(NC(=O)Nc2ccccc2F)c1 | -19% | ?
